Bioassay records deposited in PubChem BioAssay by National Center for Advancing Translational Sciences (NCATS).
HSD17B inhib – qHTS Assay for Inhibitors of HSD17B4, hydroxysteroid (17-beta) dehydrogenase 4; 3-hydroxyacyl-CoA dehydrogenase type-2 (Homo sapiens), Q99714; recombinant HSD17B10, NADH fluorescence kinetic; many of its hits are not listed in these tables; Potency, µM (titrated, usually from 57.1 µM), for inactives: at the highest dose activity change, negative = inhibition, usual class: inhibitors; 75,000 compounds, 7.6% hits; active = well fitted inhibition curve with a large enough effect; inconclusive = small, poorly fitted or top-dose-only effect; inactive = no such curve, though single readings can be large or run the other way;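 also: the protocol describes HADH2 (HSD17B10) and not the HSD17B4 of the title; nearly all actives have a fitted effect of over 70% in size; most hits overshoot -100% by far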
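Activity followed as NADH fluorescence increase (ex 360, em 450 nm) every 30 seconds for 4 min, using final 90 uM beta-hydroxybutyryl CoA and 1 mM NAD+. Recombinant His-tagged enzyme, 20 nM, pH 9.0 Tris buffer, 15 min compound preincubation.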
An asterisk follows results filed as active; ? = inconclusive; [ ] = dose if it differs, or a comment. % is scaled to controls: 0 for no effect and ±100 for the full control effect; potency is read from the fitted curve at half-maximal effect. The list is partial, so the mix of outcomes need not match the whole.

no.	SMILES	HSD17B inhib
1	O=C(c1cc(-c2ccncc2)nc2ccc(Cl)cc12)N1CCN(C(=O)C2CCCO2)CC1 (stereo not drawn)	1%
2	c1ccc(-c2ccc(-c3nc(-c4cccnc4)no3)cc2)cc1	25µM*
3	C=CCNc1ccc(F)c(F)c1N1CCCCCC1=O	0%
4	CSCC[C@H](NC(=O)NCCc1ccc(F)cc1)C(=O)O	7%
5	O=C(NC1CCSC1=O)c1ccc(Cl)cc1 (stereo not drawn)	0%
6	COc1ccc(-n2c(=O)c3ccccc3n(CC(=O)NC3CCCCC3)c2=O)c(OC)c1	-1%
7	COC(=O)C(O)(NC(=O)OCc1ccccc1)C(F)(F)F (stereo not drawn)	3%
8	COc1cccc(C(=O)N(Cc2cc3cc(C)ccc3[nH]c2=O)C(C)C)c1	?
9	c1ccc2c(SCc3cn4cccnc4n3)ncnc2c1	32µM*
10	CC(=O)c1cccc(NC(=O)CCNS(=O)(=O)c2cccc(C(C)=O)c2)c1	4%

Compounds from the list above that have fluorine (three):
no.	SMILES	HSD17B inhib
3	C=CCNc1ccc(F)c(F)c1N1CCCCCC1=O	0%
4	CSCC[C@H](NC(=O)NCCc1ccc(F)cc1)C(=O)O	7%
7	COC(=O)C(O)(NC(=O)OCc1ccccc1)C(F)(F)F (stereo not drawn)	3%

Next part:
no.	SMILES	HSD17B inhib
11	O=C(CSc1nnc(Cc2ccccc2)o1)NCCN1C(=O)CSC1=O	3%
12	Cn1nc(CC(=O)Nc2cccc3ncccc23)c2ccccc2c1=O	-6%
13	CCCN1C(=O)c2cc(C(=O)NCCc3cccc(C)c3)ccc2C1O (stereo not drawn)	9%
14	O=C(CN1CCN(Cc2ccccc2)C1=O)NCc1ccc(Cl)cc1	3%
15	O=C(CN1C(=O)CC(c2ccco2)Sc2ccccc21)NCc1ccc2c(c1)OCO2 (stereo not drawn)	-3%
16	CSCCC1NC2(C(=O)Nc3c(C)cc(Cl)cc32)[C@@H]2C(=O)N(C3CCCC3)C(=O)[C@H]12 (stereo partly drawn)	-13%
17	C=CCn1c(COc2cccc3ccc(C)nc23)nnc1SCC(=O)O	?
18	CCOC(=O)c1ccc(N2C(=O)c3n[nH]c(C)c3C2c2ccco2)cc1 (stereo not drawn)	-3%
19	Cc1cccc(CSc2nncc(=O)[nH]2)c1	0%
20	Nc1cc(-c2ccc(Br)cc2)[nH]n1	-5%
21	NC(=O)CSc1nnc(-c2ccncc2)n1-c1ccc(Cl)cc1	5%
22	CCn1c(SCC(=O)Nc2oc(-c3ccccc3)c(-c3ccccc3)c2C#N)nnc1-c1ccco1	?
23	Nc1nc(-c2ccc(Br)cc2)cs1	-9%
24	CC1CN(c2nc3c(c(=O)n(Cc4ccc(Cl)c(Cl)c4)c(=O)n3C)n2C)CC(C)O1 (stereo not drawn)	-1%
25	Cc1ccc(CN2CCN(CC(=O)N3CCC(C(N)=O)CC3)C2=O)cc1	5%
26	COc1ccc(CCNC(=O)CN2C(=O)c3ccccc3S2(=O)=O)cc1OC	8%
27	Cc1ccc(Cn2ccc(NC(=O)c3cc(-c4ccccc4)on3)n2)cc1	24%
28	Cc1ccc2[nH]c(=O)c(CN(CCN3CCOCC3)C(=O)Nc3ccc(F)cc3)cc2c1	-13%
29	CC(/C=C/c1ccccc1)=N/O	4%
30	COc1ccc(N2CCN(C(=O)CSc3nnc4ncccn34)CC2)cc1	-1%
31	COc1ccc(N2CCN(Cc3nc(N)nc(N4CCCc5ccccc54)n3)CC2)cc1	10%
32	CC1CCCCC1NC(=O)COC(=O)c1ccc(S(=O)(=O)N2CCOCC2)cc1 (stereo not drawn)	-2%
33	C=CCn1c(SCC(=O)Nc2cc(C)nn2-c2ccccc2)nnc1C1CCCCC1	2%
34	O=S(=O)(c1ccc2c(c1)oc1ccccc12)N1CCOCC1	-2%
35	CCn1c(SCC(=O)NCCc2ccc(F)cc2)nnc1-c1cccs1	4%
36	COc1cc(OC)c(NC(=O)CCNC(=O)Cn2cnc3ccccc3c2=O)cc1Cl	4%
37	Cn1cnnc1SCc1ccccc1Br	-1%
38	COCCNC(=O)C(c1ccco1)N(Cc1ccc(OC)cc1)C(=O)Cn1nnc2ccccc21 (stereo not drawn)	-4%
39	CCOC(=O)CSc1nc2c(c(=O)n(C)c(=O)n2C)n1Cc1ccccc1F	4%
40	CC(C)Oc1snc(Cl)c1C(N)=O	3%
41	NC(=O)CSc1nnc(Cn2c(=O)sc3ccccc32)n1-c1cccc(Cl)c1	5%
42	COc1ccc(S(=O)(=O)NC(CC(=O)NC2CCCC2)c2ccco2)cc1 (stereo not drawn)	2%
43	O=c1c2cnn(-c3ccccc3)c2ncn1Cc1ccccc1F	-9%
44	C=CCn1c(Cc2c[nH]c3ccccc23)n[nH]c1=S	-15%
45	COc1cccc(C2c3c(oc4ccccc4c3=O)C(=O)N2c2ccccn2)c1 (stereo not drawn)	-9%
46	Clc1cccc(Cl)c1-c1nnc2ccc(N3CCOCC3)nn12	5%
47	Cc1cc(C)n2nc(NCc3ccccc3)nc2n1	32µM*
48	CC(=O)c1cc2c(cc1NC(=O)C1CC=CCC1C(=O)O)OCO2 (stereo not drawn)	-9%
49	Cn1c(SCc2nc3ccccc3[nH]2)nnc1-c1cnccn1	3%
50	CS(=O)(=O)N(CC(=O)O)Cc1ccccc1	3%[11.4 µM]
51	CCC(C(=O)O)C1CCC(C)C(C(C)C(O)C(C)C(=O)C(CC)C2OC3(C=CC(O)[C@@]4(CC[C@](C)(C5CC[C@@](O)(CC)C(C)O5)O4)O3)C(C)CC2C)O1 (stereo partly drawn)	7%
52	CCOc1ccc(NC(=O)N2CCN(CC)CC2)cc1	3%
53	COc1ccc(N2CCN(C(=O)c3ccc(NS(=O)(=O)c4ccc(F)cc4)cc3)CC2)cc1	3%
54	OCCCNC(c1ccccc1)c1ccc(O)cc1 (stereo not drawn)	-20%
55	COc1ccc(C(=O)OCC(=O)NCc2ccco2)cc1OC	?
56	CS(=O)(=O)N1CCC2(CCCN(Cc3ccc(C#N)cc3)C2)CC1	6%
57	CN(C)S(=O)(=O)n1cnc(-c2ccccc2)c1-c1ccccc1	10%
58	N#CCSc1ncnc2sc3c(c12)CCC3	-20%
59	CC1(C)CC2CC(C)(CN2C(=O)COC(=O)c2n[nH]c(=O)c3ccccc23)C1 (stereo not drawn)	3%
60	CCOC(=O)C(CC)Sc1ncnc2c1nnn2-c1ccc(F)cc1 (stereo not drawn)	5%

Later entries.
no.	SMILES	HSD17B inhib
61	OCC1O[C@H](OC2C(CO)O[C@@](O)(CO)C2O)C(O)C(O)C1O (stereo partly drawn)	0%
62	COc1cc(C(c2sc3nc(C)nn3c2O)N2CC(C)OC(C)C2)cc(OC)c1OC (stereo not drawn)	1%
63	O=C(O)c1ccc(-n2nnnc2SCc2ccccc2F)cc1	-5%
64	CC(C)c1ccc(NC(=O)c2csnn2)cc1	-2%
65	CCCCN1C(=O)CN(CCc2ccccc2)C(=O)C1c1ccc(OC)cc1 (stereo not drawn)	15%
66	O=C(COc1ccccc1)N(Cc1ccco1)C1CCS(=O)(=O)C1 (stereo not drawn)	-8%
67	CC(=O)c1c(C(C)=O)c(C)n(-c2nc(-c3cccs3)c(C)s2)c1C	-4%
68	Cc1ccc(NC(=O)C2CC(c3ccc(F)cc3)=NO2)cc1 (stereo not drawn)	9%
69	Cc1nc(C)c(C(=O)C2=C(O)C(=O)N(CCN3CCOCC3)C2c2cccs2)s1 (stereo not drawn)	-1%
70	Nc1nonc1-c1nc2ccccc2n1Cc1ccc(F)cc1	2%

An excerpt of these results, field by field.
#61 OCC1O[C@H](OC2C(CO)O[C@@](O)(CO)C2O)C(O)C(O)C1O (stereo partly drawn)
  HSD17B inhib: 0%
#62 COc1cc(C(c2sc3nc(C)nn3c2O)N2CC(C)OC(C)C2)cc(OC)c1OC (stereo not drawn)
  HSD17B inhib: 1%
#63 O=C(O)c1ccc(-n2nnnc2SCc2ccccc2F)cc1
  HSD17B inhib: -5%
#64 CC(C)c1ccc(NC(=O)c2csnn2)cc1
  HSD17B inhib: -2%

Carrying on.
no.	SMILES	HSD17B inhib
71	COc1ccccc1NC(=O)c1ccc(Br)o1	-6%
72	COc1ccccc1NC(=O)c1cn(C)c(=O)c2cc(OC)c(OC)cc12	2%
73	CC(=O)OC1CCC2(C)C(CCC3(C)C2C(=O)C=C2C4CC(C)(C(=O)OCCN5CCCCC5)CCC4(C)CCC23C)C1(C)C (stereo not drawn)	-2%
74	CC(C)NC(=O)c1cc(=O)n(C)c(=O)n1C	8%
75	COc1cccc2c(=O)n(CC(=O)N3CCCCCC3)ccc12	7%
76	O=C(COc1ccc(S(=O)(=O)N2CCCCC2)cc1)NC1CCCCC1	12%
77	Cc1ccccc1CN1CCN(CC(=O)NCc2ccccn2)C1=O	1%
78	C=C(CO)C1Cc2c(ccc3c2OC2COc4cc(OC)c(OC)cc4C2C3=O)O1 (stereo not drawn)	-8%
79	CCN1C(=O)N(CN2CCOCC2)C2C1N(CN1CCOCC1)C(=O)N2CC (stereo not drawn)	7%
80	COc1cc(Br)cc(CN2CCN(C/C=C/c3ccccc3)CC2)c1O	-2%

Of the compounds above, four have a thiophene ring, fused or not.
no.	SMILES	HSD17B inhib
35	CCn1c(SCC(=O)NCCc2ccc(F)cc2)nnc1-c1cccs1	4%
58	N#CCSc1ncnc2sc3c(c12)CCC3	-20%
67	CC(=O)c1c(C(C)=O)c(C)n(-c2nc(-c3cccs3)c(C)s2)c1C	-4%
69	Cc1nc(C)c(C(=O)C2=C(O)C(=O)N(CCN3CCOCC3)C2c2cccs2)s1 (stereo not drawn)	-1%

The listing continues.
no.	SMILES	HSD17B inhib
81	COC1(OC)C(=N/O)/C(=N\O)CCC1O (stereo not drawn)	10%
82	N#CCCN(Cc1cccnc1)C(=O)Nc1cccc(Cl)c1	-6%
83	COCCNC(=O)C(c1cccs1)N(C(=O)Cn1nnc2ccccc21)c1ccc2c(c1)OCO2 (stereo not drawn)	1%
84	CCN(CC)CCCNC(=O)Cc1c(C(=O)O)n(C)c2ccccc12	-25%
85	O=c1[nH]c(CN2CCc3ccccc32)nc2scc(-c3cccs3)c12	?
86	COc1cc(NC(=O)c2cc(C)on2)cc(OC)c1OC	3%
87	C=COC(=O)CSc1snc(SCC(=O)OC)c1C#N	0%
88	CCCCC#CC1C=CC(Oc2ccc(C(=O)OC)cc2)C(COC(=O)OCC)O1 (stereo not drawn)	-9%[11.4 µM]
89	CCOc1ccc(N(CC(=O)NC2CCCC2)S(=O)(=O)c2c(C)[nH]c(=O)[nH]c2=O)cc1	-4%
90	CC1(C)NC(=O)N(CCOc2ccc3c(c2)CCC3)C1=O	6%
91	O=c1c2c3c(sc2nc2n1CCCC2)CCC3	-12%
92	COc1ccccc1CN1CCCC2(CCN(C(=O)c3ccncc3)CC2)C1	-1%
93	CSc1ccccc1N=CC1=C(O)CC(C)(C)CC1=O	-12%
94	COc1cccc(NC(=O)NC2CCN(Cc3nnnn3Cc3ccc(F)cc3)CC2)c1	-3%
95	CCCCNC(=O)CS(=O)Cc1nc(-c2ccc(C)cc2)oc1C (stereo not drawn)	-3%
96	COC(=O)c1[nH]c2cccc(OC)c2c1NC(=O)CN1CCC(C(N)=O)(N2CCCCC2)CC1	32µM*
97	COc1ccc(OCC(O)CNC(=O)c2ccc(Br)cc2)cc1 (stereo not drawn)	8%
98	CC(=O)OC1CC(OC(C)=O)[C@]2(C)C(CC(=O)[C@]3(C)C2CC[C@@]2(C)C(c4ccoc4)OC(=O)C4O[C@@]423)C1(C)C (stereo partly drawn)	-4%
99	C=CCN1C(=O)C(O)=C(C(C)=O)C1c1ccccc1F (stereo not drawn)	-3%
100	O=C(Cn1ccc2ccccc2c1=O)Nc1ccc2c(c1)OCO2	-5%
101	CCc1nn(CC(=O)NCCCN(Cc2ccccc2)C(C)C)c(=O)c2cc3sccc3n12	-11%
102	COc1ccc(CNc2nc(-c3ccccc3CN(C)C)nc3ccccc23)c(OC)c1	-9%
103	CC1CCC(N2CCN(c3ncccn3)CC2)CC1 (stereo not drawn)	-4%
104	O=C1[C@@H]2[C@H]3[C@H](O)[C@H](O)C/C(=N/OC[C@@H](O)COCc4ccco4)[C@H]3CC[C@H]2C(=O)N1c1ccc(F)cc1F	4%[11.4 µM]
105	Cc1cc(C)n(-c2nc3sc4c(c3c3nnc(SC(C)C)n23)CC(C)(C)OC4)n1	?
106	O=C(CSc1nc(-c2ccccc2Cl)ns1)NCc1ccco1	6%
107	CN=C(Nc1cc(C)nn1-c1ccccc1)c1ccccc1	5%
108	O=C(Nc1ccc(NC(=O)C2CC2)nc1)c1cccs1	1%
109	Cc1cc(C(F)F)n2nc(C(=O)O)nc2n1	9%
110	Cc1ccc2cc(CN(Cc3ccco3)C(=O)NCc3ccccc3)c(=O)[nH]c2c1C	?
111	Cc1nnc(SCCN2C(=O)c3ccccc3C2=O)[nH]c1=O	7%
112	C=C(C)COc1ccc(-c2[nH]ncc2-c2ccccc2OC)c(O)c1	?
113	O=C(c1coc2ccccc2c1=O)N1CCN(c2cccc(C(F)(F)F)c2)CC1	1%
114	CC(=O)N1CCC2(CC1)CCN(c1ccccn1)CC2	32µM*
115	COC(=O)c1nnn(-c2nonc2N)c1CSc1ccccn1	32µM*
116	Nc1nc(Sc2ccc([N+](=O)[O-])c3nonc23)c2[nH]cnc2n1	1µM*
117	O=C(Cn1c(CO)nc2ccccc21)Nc1cc(C(F)(F)F)ccc1N1CCOCC1	7%
